Screening data deposited in PubChem BioAssay by several laboratories.
RGS16-Gao: regulators of human RGS16-Galphao interaction. O15492+P09471. bead-based flow cytometry RGS16-Galphao binding, fluorescence; actives lie on both sides. binding response (% of control), % at 10 µM. actives 0.38% (n = 220,000). AID 1441;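 active means below 25% or above 175%, edge rows of some plates excepted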;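 further: Galphao activated by GDP with aluminum fluoride before binding; 100% = wells without compound and 0% = beads without RGS; some results beyond the cut were filed as inactive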
Target sequence (O15492 whole entry, looked up): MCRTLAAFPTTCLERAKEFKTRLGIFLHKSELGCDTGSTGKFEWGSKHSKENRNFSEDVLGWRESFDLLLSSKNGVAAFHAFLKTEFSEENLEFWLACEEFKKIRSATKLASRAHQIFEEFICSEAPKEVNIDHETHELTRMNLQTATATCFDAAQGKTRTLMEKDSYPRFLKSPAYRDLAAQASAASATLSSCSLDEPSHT
Target sequence (P09471 whole entry, looked up): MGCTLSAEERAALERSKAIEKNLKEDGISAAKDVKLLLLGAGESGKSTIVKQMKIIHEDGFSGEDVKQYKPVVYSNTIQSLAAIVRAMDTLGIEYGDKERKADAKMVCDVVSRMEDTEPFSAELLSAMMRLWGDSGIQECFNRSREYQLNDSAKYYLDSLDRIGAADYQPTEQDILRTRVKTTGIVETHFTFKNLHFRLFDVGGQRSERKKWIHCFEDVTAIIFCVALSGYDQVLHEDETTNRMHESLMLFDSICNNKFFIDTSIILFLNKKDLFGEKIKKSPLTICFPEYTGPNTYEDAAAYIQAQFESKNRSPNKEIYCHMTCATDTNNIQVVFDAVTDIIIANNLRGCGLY
INS promoter inh: TRM-6 insulin promoter activity inhibition; TRM-6 cells (human fetal islet line), insulin promoter-eGFP reporter, imaging; reporter expression induced with tamoxifen; inhibition, % at 2 µM; actives 0.9% (n = 130,000); AID 1273;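 active means inhibition above the mean plus 3 SD, with well images judged a real hit on visual review, cut at about 60% in these data, passing the limit was not always enough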
PKD1 kinase inh: blocks activity of human protein kinase D1; Q15139; PKD1 kinase fluorescence polarization assay; inhibition, %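 (about 10 µM by stock and volumes)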; actives 0.056% (n = 200,000); AID 797;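 active means inhibition of 50% or more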;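 further: controls were vehicle for no effect and a reference inhibitor for full effect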
GALR2 ag: activates the human galanin receptor 2; O43603; GALR2-expressing cells, agonist activation read-out; activation, %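 (tested at 5 µM)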; actives 0.48% (n = 140,000); AID 803;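 active means above mean plus 3 SD of all compounds, about 5% in these data, not always enough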;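 further: 0% = vehicle buffer wells and 100% = reference agonist at full effect; tested in CHO reporter cells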
Target sequence (O43603 whole entry, looked up): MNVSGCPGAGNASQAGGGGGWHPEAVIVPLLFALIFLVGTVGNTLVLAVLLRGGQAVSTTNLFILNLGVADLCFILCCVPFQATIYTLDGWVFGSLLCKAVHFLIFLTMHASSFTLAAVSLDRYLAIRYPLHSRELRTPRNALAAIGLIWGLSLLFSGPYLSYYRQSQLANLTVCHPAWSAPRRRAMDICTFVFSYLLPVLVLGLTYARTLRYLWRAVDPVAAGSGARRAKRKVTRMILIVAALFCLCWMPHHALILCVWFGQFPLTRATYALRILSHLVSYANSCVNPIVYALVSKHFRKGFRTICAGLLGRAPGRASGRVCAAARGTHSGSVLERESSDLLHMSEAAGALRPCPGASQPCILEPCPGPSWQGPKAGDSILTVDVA
HSV augment: increases HSV replication in cells; HSV replication augmentation in cells, fold increase; maximum fold increase; actives 0.005% (n = 220,000); AID 1956;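 active means peak rise of 1.5-fold or more in the series; tested in PC3 cells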;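 further: first round at 10 µM; read as green reporter fluorescence; hits show the peak of a series up to 25 µM; 1 = signal of infected wells without compound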
INS promoter inh cell count: second read-out of INS promoter inh, no call of its own (marks repeat the call); normalized cell count, %; measured here: cell count, toxicity; reference of the scale not given here;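 cells exposed to compound for 48 h; stained nuclei by imaging scaled within each plate; lower means fewer cells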
HSV augment primary fold: also measured in HSV augment; calls as there; fold increase; compound at 10 µM; measured here: primary screen fold increase 10 uM; tested in PC3 cells;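 GFP signal in the first replicate; 1 = infected wells without compound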
Numbers without * were called inactive; i = inactive; / = no result given.

SMILES	RGS16-Gao	INS promoter inh	INS promoter inh cell count	PKD1 kinase inh	GALR2 ag	HSV augment	HSV augment primary fold
C=C(C)C1CCC(C)=C1CC(C)(C)/C=N\n1cnnc1 (configuration not stated)	110	/	/	-8	-0.6	i	1.1
O=C(CN1CCOCCOCCOCCOCC1)Nc1ccccc1	96	31	100	-4	-3.2	i	0.89
COC(=O)c1cc2oc(C)cc2n1CC(=O)Nc1cc(C)cc(C)c1	106	-32	146	1	-1.5	i	1.1
CCc1ccc[n+](-c2nc3ccccc3nc2C(=C=[N-])C#N)c1	88	/	/	/	/	i	1.2
O=C(c1c[nH]c2ccccc12)N1CCOCC1	103	/	/	-6	/	i	1.1
Cc1ccc2nc(C)c(C(=O)N/N=C/c3cccc([N+](=O)[O-])c3)cc2c1	113	-10	104	19	-1.2	i	0.94
CC1CCN(C2CC(=O)N(c3ccc(Br)cc3Br)C2=O)CC1 (configuration not stated)	107	/	/	/	/	i	1.1
O=C(CN1C(=O)CCC1=O)NC(=O)NC1CCCC1	110	/	/	/	/	i	1
O=c1c2ccccc2c2ccccc2c(=O)n1Cc1ccco1	108	26	65	-13	0.2	i	0.92
O=C(NCCO)C1(c2ccccc2)CCCC1	100	43	134	12	-1.5	i	1
Cn1c(=O)n(Cc2ccccc2)c(=O)c2c1nc(NCC1CCCO1)n2Cc1ccccc1 (configuration not stated)	104	26	75	1	-0.8	i	0.86
CC(=O)C1=C(O)C(=O)N(c2nccs2)C1c1ccc(Br)cc1 (configuration not stated)	122	19	120	-11	-1.4	i	1.2
O=C(Nc1cccc(-c2nc3ccccc3s2)c1)C1=COCCO1	97	-24	156	-3	0.7	i	0.81
CN1C(=O)CSc2ccc(NC(=O)NCc3cccnc3)cc21	98	/	/	-3	0.8	i	0.9
Cc1nn(-c2ccccc2)c(N2CCCC2)c1/C=N/Nc1ccc(S(=O)(=O)Nc2ccccc2)cc1[N+](=O)[O-]	19	67	58	-4	-1.1	i	0.75
COc1cc(/C=N\Nc2ccc([N+](=O)[O-])cn2)ccc1OCC(=O)O	100	/	/	4	/	i	0.99
COC(=O)COc1cccc(NC(=O)c2cccc(C)c2)c1	103	42	67	5	/	i	1
CCOCC(=O)Nc1nc(-c2ccccc2)c(CC)s1	102	/	/	2	-3.0	i	0.98
COc1ccc(N(CC(=O)NCc2ccco2)S(=O)(=O)c2c(C)nn(C)c2C)cc1	106	/	/	0	-2.9	i	0.92
COCC(=O)Nc1nnc(Cc2ccc(OC)cc2)s1	103	7	126	-2	-3.2	i	1

Two records picked at random from the list so far:
SMILES	RGS16-Gao	INS promoter inh	INS promoter inh cell count	PKD1 kinase inh	GALR2 ag	HSV augment	HSV augment primary fold
COc1ccc(N(CC(=O)NCc2ccco2)S(=O)(=O)c2c(C)nn(C)c2C)cc1	106	/	/	0	-2.9	i	0.92
CC(=O)C1=C(O)C(=O)N(c2nccs2)C1c1ccc(Br)cc1 (configuration not stated)	122	19	120	-11	-1.4	i	1.2

New compounds follow
SMILES	RGS16-Gao	INS promoter inh	INS promoter inh cell count	PKD1 kinase inh	GALR2 ag	HSV augment	HSV augment primary fold
c1cncc(CNc2ncnc3sc4c(c23)CCCC4)c1	94	/	/	-6	/	i	0.86
CN(C)CCCN1C(=O)c2oc3ccccc3c(=O)c2C1c1cccs1 (configuration not stated)	105	-30	100	-2	-1.6	i	1.1
Cc1c(Cl)cccc1NC(=O)CC1SC(=NCC2CCCO2)NC1=O (configuration not stated)	100	22	119	9	-0.1	i	0.95
CC(C)(C)c1ccc2c(c1)C(=O)c1ccccc1C2=O	100	/	/	1	1.3	i	1.1
Cc1cc(-c2nc3ncccc3o2)ccc1NC(=O)CC(C)C	103	/	/	-5	-0.4	i	0.69
CCOc1ccc(C(=O)NC2CCN(C(=S)Nc3ccccc3C)CC2)cc1	107	/	/	-7	/	i	0.99
Cc1cc(C)c(S(=O)(=O)NCc2ccc3c(c2)cc(C)n3C)c(C)c1	102	/	/	-10	-1.5	i	1.2
Cc1ccccc1N1C(=O)CC(c2c[nH]c3ccccc23)C1=O (configuration not stated)	102	/	/	-1	/	i	1.2
O=C1c2ccccc2C(Nc2ccc3nc(-c4cccnc4)[nH]c3c2)N1Cc1ccco1 (configuration not stated)	110	/	/	-14	0.0	i	0.77
Cc1cc(=O)[nH]n(CCO)c1=O	99	/	/	/	/	i	0.95
O=C(O)CCn1nnc2ccccc21	100	/	/	/	/	i	0.87
COc1cccc(C(=O)NCCSc2ccc(Br)cc2)c1	11*	-29	93	-3	/	i	0.84
CC(=O)Nc1cccc(NC(=O)Nc2cccc(Cl)c2C)c1	108	/	/	2	/	i	1
CCOC(=O)N1CCc2c(sc3nc[nH]c(=O)c23)C1	101	/	/	/	/	i	0.99
CCC(=O)N1CCN(c2ccc(NC(=O)c3ccccc3)cc2)CC1	115	/	/	3	/	i	0.84
Cc1ccccc1CSc1nnc(NC(=O)Cc2cccs2)s1	102	/	/	-3	-0.3	i	1.1
CCOC(=O)C1CCCN(Cc2cccs2)C1 (configuration not stated)	98	-3	102	5	-1.0	i	1
O=C1CCC(C(=O)OCc2cc(Cl)ccc2OC(F)F)N1 (configuration not stated)	137	-11	110	2	-1.0	i	1.2
O=C(NC(=S)N1CCN(c2ccc([N+](=O)[O-])cc2Cl)CC1)c1ccco1	98	47	105	-13	-0.7	i	1.1
CCn1c(C)cc(C=C2C(=O)c3ccccc3C2=O)c1C	105	/	/	1	/	i	1

Quoted from the listing.
CCn1c(C)cc(C=C2C(=O)c3ccccc3C2=O)c1C in PKD1 kinase inh = 1
O=C(NC(=S)N1CCN(c2ccc([N+](=O)[O-])cc2Cl)CC1)c1ccco1 in PKD1 kinase inh = -13
CCOC(=O)C1CCCN(Cc2cccs2)C1 (configuration not stated) in INS promoter inh = -3
COc1cccc(C(=O)NCCSc2ccc(Br)cc2)c1 in INS promoter inh = -29

Continued.
SMILES	RGS16-Gao	INS promoter inh	INS promoter inh cell count	PKD1 kinase inh	GALR2 ag	HSV augment	HSV augment primary fold
Brc1ccc(C2NCCS2)cc1 (configuration not stated)	100	-15	89	7	/	/	/
CCS(=O)(=O)c1nc(S(=O)(=O)c2ccc(Cl)cc2)c(NCCOC)s1	102	/	/	-6	/	i	1
CCOC(=O)c1nc(NCc2ccccc2)c2ccccc2n1	104	/	/	-2	/	i	0.89
CC1CCCC(C)N1C(=O)CSc1nnnn1-c1cccc2c1CCCC2 (configuration not stated)	100	5	78	-9	0.1	i	1.1
COc1ccc(NC(=S)Nc2ccccc2Cl)cn1	102	/	/	-11	/	i	0.96
Cc1nnc(NC(=O)CSc2nc3ccccc3o2)s1	109	-19	71	2	-1.6	i	0.8
Cc1ccc(Oc2ccc(Cl)cc2NC(=O)c2ccc(F)cc2F)cc1	103	-22	87	-7	0.4	i	0.99
Cc1cc(=O)[nH]c(N2CCCC2)n1	102	18	95	-3	-3.0	i	1
COc1cccc(NC(=O)C(OC(=O)c2ccc([N+](=O)[O-])o2)c2ccccc2)c1 (configuration not stated)	91	3	106	3	0.2	i	0.95
COc1ccc(NC(=O)Nc2ncccc2C)cc1	108	-31	188	-5	0.0	i	0.77

Record cards, from the list above. Values in the order: RGS16-Gao	INS promoter inh	INS promoter inh cell count	PKD1 kinase inh	GALR2 ag	HSV augment	HSV augment primary fold
Cc1cc(=O)[nH]c(N2CCCC2)n1 is listed as 102	18	95	-3	-3.0	i	1
CCS(=O)(=O)c1nc(S(=O)(=O)c2ccc(Cl)cc2)c(NCCOC)s1 is listed as 102	/	/	-6	/	i	1
Cc1nnc(NC(=O)CSc2nc3ccccc3o2)s1 is listed as 109	-19	71	2	-1.6	i	0.8
COc1cccc(NC(=O)C(OC(=O)c2ccc([N+](=O)[O-])o2)c2ccccc2)c1 (configuration not stated) is listed as 91	3	106	3	0.2	i	0.95
Cc1ccc(Oc2ccc(Cl)cc2NC(=O)c2ccc(F)cc2F)cc1 is listed as 103	-22	87	-7	0.4	i	0.99

Next structures follow.
SMILES	RGS16-Gao	INS promoter inh	INS promoter inh cell count	PKD1 kinase inh	GALR2 ag	HSV augment	HSV augment primary fold
COc1cc(/C=C2\C(=O)N(c3ccccc3)N=C2C)ccc1Oc1ccc([N+](=O)[O-])cc1[N+](=O)[O-]	79	-47	82	-4	-1.4	i	0.89
CCOC(=O)C1CCC2(CC1)C(C#N)=C(N)Oc1n[nH]c(C)c12 (configuration not stated)	104	12	115	0	-1.7	i	0.98
C/C(=N\NC(=S)NCc1ccccc1)c1ccccc1	102	13	109	15	-0.1	i	0.92
CCOc1ccc(CN2CCN(Cc3cccc4nonc34)CC2CCO)cc1 (configuration not stated)	103	/	/	10	/	i	0.96
CC1=C(C(=O)OCC(Cl)(Cl)Cl)N2C(=O)C(NC(=O)Cc3ccccc3)C2SC1 (configuration not stated)	105	/	/	-6	/	i	1
O=C(Cc1cccs1)NCc1ccco1	101	19	135	-5	-1.1	i	1
COc1ccc(CN(C)C(=O)COC(=O)c2c(-c3ccccc3Cl)noc2C)cc1	99	/	/	0	/	i	1
Cc1cc(C)c(C)c(S(=O)(=O)N2CCN(c3ccc(O)cc3)CC2)c1C	109	-22	60	8	/	i	0.83
CCOc1ccc(C2/C(=C(/O)c3ccccc3)C(=O)C(=O)N2CCCN(C)C)cc1OC (configuration not stated)	/	29	65	4	-1.7	/	/
N#Cc1ccccc1/C=N/Nc1nc(-c2ccccc2)c2cc(Br)ccc2n1	95	17	147	2	-4.4	i	1
O=C(COc1cc(F)ccc1[N+](=O)[O-])Nc1cccc(Br)c1	87	-76	173	-5	/	i	0.98
Cc1ccc(S(=O)(=O)N2CCC(NC(=O)c3ccccc3)CC2)cc1	109	/	/	14	/	i	1.1
Clc1ccc(OCc2cc(-c3ccccc3)no2)c(Cl)c1	97	0	58	6	-0.1	i	1.1
COc1ccnc(CSC(N)=Nc2ccc(F)cc2)c1	100	i	21	-2	-3.7	i	0.83
CC(=O)c1cccc(NC(=O)c2cc(-c3ccc(F)cc3)on2)c1	97	/	/	-8	-2.5	i	0.99
O=C(N/C(=C/c1cccs1)C(=O)N1CCOCC1)c1ccccc1	99	-7	134	0	/	i	0.99
CC(=O)N/N=C(\N)c1nonc1N	103	/	/	/	/	i	0.98
COc1ccc(N2CCN(C(=O)CN3CCN(c4nc(-c5ccc(F)cc5)cs4)CC3)CC2)cc1	118	/	/	-2	/	i	0.94
CCN1CCN(C(c2cccs2)C(C)NS(=O)(=O)c2ccc(F)cc2)CC1 (configuration not stated)	100	10	116	-5	-2.0	i	0.76
COc1ccccc1-n1nc(C)c(-c2ccccc2)c1N	98	-13	94	-3	/	i	0.88
COc1ccccc1C(c1nnnn1C(C)(C)C)N1CCN(Cc2ccncc2)CC1 (configuration not stated)	98	21	135	-2	-1.3	i	0.87
CC(C)(C)NC(=O)COC(=O)c1cc(F)c(F)cc1Cl	114	-38	57	4	-1.3	i	1
N#CCC(=N)N1CCN(c2cccc(Cl)c2)CC1	104	6	75	10	-1.8	i	0.91
O=C(COc1ccc2oc(-c3ccco3)cc(=O)c2c1)N1CCCCC1	83	/	/	0	/	i	0.98
O=C1CCC(=O)N(O)CCCCCNC(=O)CCC(=O)N(O)CCCCNC(=O)CCC(=O)N(O)CCCCCN1	66	/	/	/	/	i	1.1
O=c1[nH]cnc2c1c(-c1ccccc1)cn2-c1ccc(F)cc1	95	-7	99	-3	-0.8	i	0.95
O=C(Nc1ccc(Cc2ccc(NC(=O)C3CC3)c(O)c2)cc1O)C1CC1	100	25	60	1	-0.9	i	0.75
Brc1cccc(/C=N\n2cnnc2)c1	88	-24	94	-3	-2.4	i	0.91
Cc1nc(C(=O)NNC(=O)c2c(-c3c(Cl)cccc3Cl)noc2C)cs1	99	/	/	/	/	i	1
O=C(O)CC(C(=O)N(c1ccccc1)c1ccccc1)N1CCOCC1 (configuration not stated)	96	/	/	-5	-3.0	i	0.89
COc1ccccc1CNC(=O)c1cnccn1	61	/	/	-3	-2.8	i	1.2
Clc1ss/c(=N\c2ccccn2)c1Cl	90	11	137	7	0.9	i	0.8
FC(F)(F)c1cc(N2CCOCC2)nc(-c2ccccc2)n1	33	/	/	8	-0.3	i	1
Cc1ccc2oc(-c3cccc(NC(=O)c4ccc(Br)o4)c3)nc2c1	98	-35	92	-12	-1.3	/	/
Nc1ccc(O)c2c(=O)cc(-c3ccccc3Cl)oc12	104	30	117	-10	-0.7	i	0.92
